High-throughput results (PubChem BioAssay)
Vaccinia inh: blocks a specific stage of Vaccinia orthopoxvirus infection; AID 1053133; Vaccinia-infected cells, mCherry/Venus stage reporter fluorescence; active compounds read low; some inactives read as strong as hits; activity change (mCherry), % (concentration not given with the values); hit rate 0.01% among 89,000;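 active means mCherry past -33% and 40 or more points under the early reporter, replicates agreeing; inconclusive means past -33% without that gap or agreement; tested in A549 cells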;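 further: scaled between vehicle wells and reference inhibitor wells; 23 nL library stock went into each well; one replicate is shown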
Vaccinia inh Venus: further read-out of Vaccinia inh, marked with its call; activity change (Venus), %; measured here: Venus reporter, other viral stage;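 negative = less Venus signal; first of two replicates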
* = called active by the depositor; ? = inconclusive; nt = no result given; & = joins results of further samples. The list is partial; count on the stated rates, not on these rows.

SMILES | Vaccinia inh | Vaccinia inh Venus
CCCN(C)C[C@@H]1OCCCC[C@@H](C)Oc2ccc(NS(=O)(=O)c3ccc(OC)cc3)cc2C(=O)N([C@H](C)CO)C[C@@H]1C | 22 | 2
C[C@H](CO)N1C[C@H](C)[C@H](CN(C)S(=O)(=O)c2ccc(Cl)cc2)Oc2c(NC(=O)c3ccc(-c4nccs4)cc3)cccc2C1=O | ? | nt
O=C(Nc1cccc(F)c1)N1CC(=O)N2[C@@H](CO)[C@H](c3ccc(C#CCC4CCCC4)cc3)[C@@H]2C1 | -22 | -30
COc1ccc(NC(=O)N(C)C[C@@H]2OCCCC[C@@H](C)Oc3ccc(NC(=O)Nc4ccc(F)cc4)cc3C(=O)N([C@H](C)CO)C[C@H]2C)cc1 | -24 | -13
Cc1ccc(S(=O)(=O)Nc2ccc3c(c2)C(=O)N([C@H](C)CO)C[C@@H](C)[C@H](CN(C)C(=O)CCCN(C)C)OCCCC[C@@H](C)O3)cc1 | 20 | 6
Cc1ccccc1-c1ccc([C@H]2[C@H](CO)N3C(=O)CN(S(C)(=O)=O)C[C@@H]23)cc1 | 4 | 3
C[C@@H]1CCCCO[C@H](CN(C)S(=O)(=O)c2cccs2)[C@H](C)CN([C@@H](C)CO)C(=O)c2cc(NC(=O)c3ccncc3)ccc2O1 | -6 | -11
Cc1ccccc1-c1cnc2c(c1)C(=O)N([C@@H](C)CO)C[C@H](C)[C@@H](CN(C)CC1CCCC1)O2 | -22 | -17
C[C@@H]1CN([C@@H](C)CO)C(=O)c2c(c3ccccc3n2C)-c2ccccc2CO[C@H]1CN(C)Cc1ccc(F)cc1 | ? | nt
C[C@@H]1CN([C@H](C)CO)C(=O)c2cc(NC(=O)Nc3ccc(C(F)(F)F)cc3)ccc2O[C@H]1CN(C)CC1CCCCC1 | 2 | 0
C[C@H](CO)N1C[C@H](C)[C@@H](CN(C)Cc2ccc(C(=O)Nc3ccccc3N)cc2)Oc2ccc(N(C)C)cc2C1=O | -16 | -14
CCC(=O)N(C)C[C@H]1[C@@H](c2ccc(C3=CCCCC3)cc2)[C@@H](CO)N1C(C)=O | -1 | 7
C[C@@H]1CN([C@@H](C)CO)C(=O)c2cccc(NC(=O)Nc3ccccc3)c2O[C@H]1CN(C)C(=O)Nc1ccc(F)cc1 | -4 | -3
CC(C)C#Cc1ccc2c(c1)O[C@@H](CN(C)C(=O)c1ccccc1)[C@@H](C)CN([C@H](C)CO)S2(=O)=O | -34 | -34
O=C(NC1CCCCC1)[C@H]1[C@H](CO)[C@H]2Cn3c(ccc(-c4ccccc4)c3=O)[C@@H]1N2 | 3 | 10
COCC(=O)N(C)C[C@H]1Oc2cc(-c3ccc(F)cc3)ccc2S(=O)(=O)N([C@@H](C)CO)C[C@H]1C | -2 | 3
C[C@@H]1CN([C@H](C)CO)C(=O)c2cccc(NC(=O)Nc3ccc(F)cc3)c2O[C@H]1CN(C)C(=O)NC1CCCCC1 | -1 | -11
C[C@@H]1CN([C@H](C)CO)C(=O)c2cccc(NC(=O)C3CC3)c2O[C@H]1CN(C)Cc1ccc2c(c1)OCO2 | -5 | 8
COc1ccc2c3c([nH]c2c1)[C@@H](CO)N(CC1CC1)CC31CN(C(=O)c2ccc(F)cc2)C1 | -2 | 3
O=C(NCCc1ccccc1)[C@H]1[C@H](CO)[C@H]2Cn3c(cccc3=O)[C@@H]1N2C(=O)C1CCCC1 | 9 | 2
O=C(CC(F)(F)F)N1C[C@H]2[C@@H](c3ccccc31)[C@@H](CO)N2C(=O)Cc1ccccc1 | -1 | -1
C[C@H]1CN([C@@H](C)CO)C(=O)c2c(c3ccccc3n2C)-c2ccccc2CO[C@@H]1CN(C)S(=O)(=O)c1ccccc1F | ? | nt
CO[C@@H](CN(C)Cc1cc(F)ccc1F)[C@@H](C)CN([C@@H](C)CO)S(=O)(=O)c1ccc(Cl)cc1 | -13 | -6
C[C@H](CO)N1C[C@H](C)[C@H](CN(C)S(=O)(=O)c2cn(C)cn2)OCc2cn(nn2)CCCC1=O | -4 | 0
C[C@H]1CN([C@@H](C)CO)C(=O)c2cccc(NC(=O)Nc3cccc4ccccc34)c2O[C@@H]1CN(C)C(=O)NC1CCCCC1 | 6 | 15
The results go on.
SMILES | Vaccinia inh | Vaccinia inh Venus
COc1ccc(-c2cnc3c(c2)C(=O)N([C@H](C)CO)C[C@H](C)[C@@H](CN(C)C(=O)C2CCC2)O3)cc1 | -16 | -8
OC[C@@H]1[C@@H](c2ccc(C#CC3CCCC3)cc2)[C@@H]2CN(CCC(F)(F)F)CCCCN12 | ? | nt
CO[C@@H]1CN(C)C(=O)c2cc(NC(=O)CC(F)(F)F)ccc2OC[C@@H](C)N(CC2CC2)C[C@H]1C | -11 | -12
CCCC(=O)Nc1ccc2c(c1)C(=O)N(C)C[C@H](OC)[C@H](C)CN(C(=O)c1ccccc1F)[C@@H](C)CO2 | -5 | -3
C[C@@H]1CN([C@@H](C)CO)C(=O)c2cc(NC(=O)CCCN(C)C)ccc2O[C@H]1CN(C)C(=O)Nc1ccc(F)cc1 | 15 | 11
CCO[C@@H]1OC(C(=O)NC2CC2)=C[C@H](c2ccc3c(c2)OCO3)[C@H]1CCCO | 25 | 19
CN(C)C(=O)c1cccc(-c2ccc(C3[C@H]4CNC[C@@H]3N4Cc3cccc(C(F)(F)F)c3)cc2)c1 (stereo partly specified) | ? | 0
Cc1ccc(S(=O)(=O)N(C)C[C@@H]2OCCCC[C@@H](C)Oc3ccc(NS(=O)(=O)c4ccc(Cl)cc4)cc3C(=O)N([C@H](C)CO)C[C@H]2C)cc1 | ? | nt
C[C@H]1CN([C@@H](C)CO)C(=O)CCCn2nncc2CO[C@H]1CN(C)C(=O)Oc1cccc2ccccc12 | 6 | 7
Cc1noc(C)c1NC(=O)N(C)C[C@H]1Oc2cc(C#CCC3CCCC3)ccc2S(=O)(=O)N([C@@H](C)CO)C[C@@H]1C | ? | nt
Cc1ccc(S(=O)(=O)N(C)C[C@@H]2Oc3ccc(NC(=O)NC(C)C)cc3C(=O)N([C@H](C)CO)C[C@H]2C)cc1 | 11 | 13
CC(C)NC(=O)Nc1cccc2c1O[C@H](CN(C)C(=O)Nc1cccc3ccccc13)[C@@H](C)CN([C@H](C)CO)C2=O | 13 | 13
COc1ccc(S(=O)(=O)Nc2ccc3c(c2)[C@H]2C[C@H](CC(=O)O)O[C@@H](CO)[C@H]2O3)cc1 | 12 | 10
Cc1cc(C(=O)Nc2cccc3c2O[C@@H](CN(C)Cc2ccc(Cl)c(Cl)c2)[C@@H](C)CN([C@@H](C)CO)C3=O)n(C)n1 | 2 | -4
C[C@@H]1CN([C@H](C)CO)C(=O)Cc2cc(NS(=O)(=O)c3cccs3)ccc2O[C@@H]1CN(C)Cc1ccc(C(=O)Nc2ccccc2N)cc1 | 5 | 7
O=C(Nc1cccc(F)c1)N1CC(=O)N2[C@H](CO)[C@@H](c3ccc(-c4cccc(F)c4)cc3)[C@H]2C1 | ? | nt
C[C@@H]1CCCCO[C@@H](CN(C)Cc2ccncc2)[C@H](C)CN([C@@H](C)CO)C(=O)c2cc(NS(=O)(=O)c3cn(C)cn3)ccc2O1 | 12 | 8
CO[C@H]1CN(C)C(=O)c2ccc(NC(=O)NC(C)C)cc2OC[C@H](C)N(C)C[C@@H]1C | -4 | 6
COc1ccc2c3c([nH]c2c1)[C@H](CO)N(C(=O)NC(C)C)CC31CN(Cc2ccccc2)C1 | -25 | -18
COC(=O)C[C@H]1CC[C@@H]2[C@@H](COc3ccc(NS(=O)(=O)c4ccc(F)cc4)cc3C(=O)N2C)O1 | 2 | -2
C[C@H]1CN([C@@H](C)CO)S(=O)(=O)c2ccc(-c3ccc(C#N)cc3)cc2O[C@H]1CN(C)C(=O)CN(C)C | -4&0 | -5&3
COCC#Cc1ccc([C@H]2[C@@H](CO)N3C(=O)CN(C(=O)c4ccncc4)C[C@H]23)cc1 | 27 | 26
C[C@H](CO)N1C[C@H](C)[C@H](CN(C)C(=O)Nc2ccccc2)Oc2ncc(C3=CCCC3)cc2C1=O | -6 | -2
Cc1noc(C)c1NC(=O)Nc1ccc2c(c1)C(=O)N([C@H](C)CO)C[C@H](C)[C@H](CN(C)C(=O)Nc1ccc(C(F)(F)F)cc1)OCCCC[C@@H](C)O2 | 13 | 5
O=C(C[C@H]1C=C[C@H](NS(=O)(=O)c2ccc(F)cc2)[C@H](CO)O1)NCc1ccncn1 | 1 | 1

9 entries from above, sorted by molar mass, rising:
SMILES | Vaccinia inh | Vaccinia inh Venus
CCO[C@@H]1OC(C(=O)NC2CC2)=C[C@H](c2ccc3c(c2)OCO3)[C@H]1CCCO | 25 | 19
Cc1ccccc1-c1ccc([C@H]2[C@H](CO)N3C(=O)CN(S(C)(=O)=O)C[C@@H]23)cc1 | 4 | 3
CO[C@H]1CN(C)C(=O)c2ccc(NC(=O)NC(C)C)cc2OC[C@H](C)N(C)C[C@@H]1C | -4 | 6
O=C(NCCc1ccccc1)[C@H]1[C@H](CO)[C@H]2Cn3c(cccc3=O)[C@@H]1N2C(=O)C1CCCC1 | 9 | 2
Cc1ccccc1-c1cnc2c(c1)C(=O)N([C@@H](C)CO)C[C@H](C)[C@@H](CN(C)CC1CCCC1)O2 | -22 | -17
C[C@@H]1CN([C@@H](C)CO)C(=O)c2c(c3ccccc3n2C)-c2ccccc2CO[C@H]1CN(C)Cc1ccc(F)cc1 | ? | nt
C[C@H](CO)N1C[C@H](C)[C@@H](CN(C)Cc2ccc(C(=O)Nc3ccccc3N)cc2)Oc2ccc(N(C)C)cc2C1=O | -16 | -14
C[C@@H]1CN([C@@H](C)CO)C(=O)c2cccc(NC(=O)Nc3ccccc3)c2O[C@H]1CN(C)C(=O)Nc1ccc(F)cc1 | -4 | -3
CCCN(C)C[C@@H]1OCCCC[C@@H](C)Oc2ccc(NS(=O)(=O)c3ccc(OC)cc3)cc2C(=O)N([C@H](C)CO)C[C@@H]1C | 22 | 2

Continuation:
SMILES | Vaccinia inh | Vaccinia inh Venus
C[C@@H]1CN([C@H](C)CO)C(=O)Cc2cc(NC(=O)CCN3CCOCC3)ccc2O[C@@H]1CN(C)S(=O)(=O)c1ccccc1 | 44 | 23
CO[C@H]1CN(C)C(=O)c2cc(NC(=O)CC(F)(F)F)ccc2OC[C@@H](C)N(C(=O)C2CC2)C[C@H]1C | 13 | 20
CNC[C@@H]1Oc2ccc(NS(=O)(=O)c3ccccc3)cc2C(=O)N([C@H](C)CO)C[C@@H]1C | 19 | 4
C[C@H]1CN([C@@H](C)CO)C(=O)c2cc(NC(=O)Cc3ccccc3)ccc2O[C@@H]1CN(C)C(=O)Nc1ccc2c(c1)OCO2 | 15 | 6
C[C@@H]1CN([C@H](C)CO)C(=O)Cc2cc(NS(=O)(=O)c3ccc(Cl)cc3)ccc2O[C@H]1CN(C)Cc1ccc(Cl)c(Cl)c1 | ? | nt
C[C@H](NC(=O)C[C@H]1C[C@H]2c3cc(NC(=O)NC4CCCC4)ccc3O[C@H]2[C@@H](CO)O1)c1ccccc1 | -18 | -15
C[C@H]1CCCCO[C@H](CN(C)C(=O)c2ccccc2)[C@@H](C)CN([C@@H](C)CO)C(=O)c2cc(NC(=O)CCCN(C)C)ccc2O1 | -2 | 3
N#C[C@H]1N[C@H](CO)[C@@H]1c1ccc(C#CC2CCCCC2)cc1 | 9 | -3
COc1ccc(NC(=O)N(C)C[C@H]2Oc3ccc(NC(=O)NC4CCCCC4)cc3C(=O)N([C@@H](C)CO)C[C@@H]2C)cc1 | 20 | 11
COc1ccccc1S(=O)(=O)N(C)C[C@@H]1Oc2cc(C#CCC3CCCC3)ccc2S(=O)(=O)N([C@H](C)CO)C[C@@H]1C | -33 | -22
COC(=O)[C@H]1[C@H](CO)[C@H]2Cn3c(ccc(-c4ccccc4OC)c3=O)[C@H]2N1C(=O)c1cnccn1 | 4 | -5
CO[C@@H](CN(C)Cc1cc(F)ccc1F)[C@H](C)CN([C@@H](C)CO)S(=O)(=O)c1ccc(Cl)cc1 | -18 | -11
C[C@@H]1CCCCO[C@@H](CN(C)C(=O)Nc2ccc3c(c2)OCO3)[C@H](C)CN([C@@H](C)CO)C(=O)c2cc(NC(=O)CCC(F)(F)F)ccc2O1 | -10 | -1
CO[C@@H]1CN(C)C(=O)c2ccc(NC(=O)c3ccccc3F)cc2OC[C@@H](C)N(C(=O)c2ccccc2F)C[C@@H]1C | 0 | 3
C[C@@H]1CN([C@@H](C)CO)C(=O)c2cc(NS(=O)(=O)c3ccc(Cl)cc3)ccc2O[C@@H]1CN(C)Cc1ccc2c(c1)OCO2 | -35 | -25
COCCNC(=O)C[C@H]1C[C@H]2c3cc(NC(=O)C4CCC4)ccc3O[C@H]2[C@H](CO)O1 | 8 | 4
O=C(c1ccc2c(c1)OCO2)N1CC[C@@H]2[C@H](CO)Nc3ccc(-c4ccc(F)cc4)cc3[C@@H]21 | -19 | -28
C[C@@H]1CN([C@H](C)CO)C(=O)c2cc(NS(=O)(=O)c3cccs3)ccc2O[C@@H](C)CCCCO[C@@H]1CN(C)C(=O)NC1CCCCC1 | 11 | 4
CO[C@@H]1CN(C)C(=O)c2cc(NC(=O)c3ccc(F)cc3)ccc2OC[C@H](C)N(C(=O)c2ccc(F)cc2)C[C@@H]1C | 3 | 6
Cc1noc(C)c1NC(=O)N(C)C[C@H]1OCCCC[C@@H](C)Oc2ccc(NS(=O)(=O)c3cccs3)cc2C(=O)N([C@@H](C)CO)C[C@@H]1C | 35 | 10
CN1c2ccc(-c3cccc(C#N)c3)cc2[C@@H]2[C@@H](CCN2S(=O)(=O)c2ccccc2)[C@H]1CO | -1 | -5

Sorted by count of non-hydrogen atoms (smallest number first): part of the list above
SMILES | Vaccinia inh | Vaccinia inh Venus
COCCNC(=O)C[C@H]1C[C@H]2c3cc(NC(=O)C4CCC4)ccc3O[C@H]2[C@H](CO)O1 | 8 | 4
CN1c2ccc(-c3cccc(C#N)c3)cc2[C@@H]2[C@@H](CCN2S(=O)(=O)c2ccccc2)[C@H]1CO | -1 | -5
C[C@@H]1CN([C@H](C)CO)C(=O)Cc2cc(NS(=O)(=O)c3ccc(Cl)cc3)ccc2O[C@H]1CN(C)Cc1ccc(Cl)c(Cl)c1 | ? | nt
